FGF22 binding = binders of human FGF22 protein, primary screen, FGF22 synaptogenesis inhibitor project, biophysical, thermal shift, single point | Fibroblast growth factor 22 (Homo sapiens), Q9HCT0 | 340,000 compounds, 1.5% hits | AID 651658, 2012 | recombinant FGF22 thermal shift, SYPRO orange fluorescence; percent of sucrose octasulfate shift, DMSO zero | calls only at 9.99 µM;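 active = melting point raised past a set limit in the mean and every replicate; three in four hits are not shown here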
Target sequence (Q9HCT0 whole entry, looked up): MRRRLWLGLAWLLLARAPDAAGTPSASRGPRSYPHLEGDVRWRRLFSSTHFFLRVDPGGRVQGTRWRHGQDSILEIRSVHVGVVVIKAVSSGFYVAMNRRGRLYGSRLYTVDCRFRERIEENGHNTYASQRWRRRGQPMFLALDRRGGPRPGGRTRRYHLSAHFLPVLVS
UCH37 DUB inh = inhibitors of human UCH37 deubiquitinase, primary screen, biochemical, Ub-AMC cleavage, fluorescence. purified proteasome/UCH37. inhibition, % (concentration not given with the values). 330,000 compounds, 0.33% hits. AID 588478, 2011;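 active = mean of two replicates above 20%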;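 note: 0% = compound-free wells with enzyme and 100% = wells lacking proteasome; stock transfer was 100 nL into about 20 µL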
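System: Proteasome-associated human UCH37 deubiquitinase; Input: 0.15 nM proteasome in added enzyme buffer; Also added: Ub-AMC substrate from 1 µM stock; Incubation: 30 min compound-proteasome preincubation then 25 min substrate reaction, room temperature; Detection: fluorescence, ex 355 nm, em 460 nm; Read-out: % inhibition of Ub-AMC cleavage fluorescence; Benchmarks: no-proteasome and no-compound wells.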
HNF4A DNA FP = change in binding of human HNF4A to DNA, primary screen, biochemical, fluorescence polarization, FITC-DNA; Hepatocyte nuclear factor 4-alpha (Homo sapiens), P41235; 1 h; activity change, % at 10 µM; 360,000 compounds, 0.3% hits; AID 1224865, 2016; in the data active = activity change above about 30%, passing the limit was not always enough;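 note: controls were the assay level and a saturating level of protein; the project sought stronger binding though the title names inhibitors; some compounds called inactive have numbers as strong as hits; positive values seem to mean higher polarization but the record does not say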
Target sequence (P41235 whole entry, looked up): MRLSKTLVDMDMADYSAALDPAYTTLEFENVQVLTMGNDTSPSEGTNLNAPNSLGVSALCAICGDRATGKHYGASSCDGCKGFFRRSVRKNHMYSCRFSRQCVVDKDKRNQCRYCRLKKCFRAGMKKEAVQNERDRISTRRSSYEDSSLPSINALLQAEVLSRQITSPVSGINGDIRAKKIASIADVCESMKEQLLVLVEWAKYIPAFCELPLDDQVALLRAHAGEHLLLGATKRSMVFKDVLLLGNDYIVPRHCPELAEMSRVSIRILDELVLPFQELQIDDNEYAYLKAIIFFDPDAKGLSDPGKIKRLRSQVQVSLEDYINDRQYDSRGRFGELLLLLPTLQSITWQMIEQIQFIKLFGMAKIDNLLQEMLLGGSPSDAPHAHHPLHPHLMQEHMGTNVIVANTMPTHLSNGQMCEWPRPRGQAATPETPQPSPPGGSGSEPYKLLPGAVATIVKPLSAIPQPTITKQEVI
Ecoli rRNA inh = reduced GFP signal of wild-type E. coli, primary screen, bacterial rRNA inhibitor project, GFP/RFP fluorescence, OD600, single point. E. coli WT GFP vs humanized-ribosome RFP mutants, 24 h; active compounds read low; DMSO median 0, no signal -100. AID 720706, 2013. 350,000 compounds, 1.6% hits. GFP signal change (wild-type ribosome), % (concentration not given with the values);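 active = significant combined selectivity score with lowered wild-type GFP, culture density cut under 30%, mutant RFP and density less affected; inactive = any of these conditions unmet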; note: one replicate is shown; some compounds called inactive have numbers as strong as hits
E coli growth = E. coli growth inhibition, primary screen, OD600 | 330,000 compounds, 0.21% hits | OD600 absorbance (concentration not given with the values) | Escherichia coli growth, 23 h; active compounds read low;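 active = OD600 absorbance below the run mean of sample wells minus 3.6 SD, in any replicate, cut at about 0.56 in these data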;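 note: stock transfer was 300 nL into about 60 µL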
B2AR ag = beta2AR agonists driving receptor internalization, primary screen, cell-based, FAP fluorogen, flow cytometry. Beta-2 adrenergic receptor (Homo sapiens), P07550. Am2.2-beta2AR cells; reference of the scale not given here. response, % (concentration not given with the values). 340,000 compounds, 0.43% hits. AID 504454, 2011;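 active = response above a set limit, near 3 SD of response in nonfluorescent compounds, cut at about 42% in these data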;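 note: stock transfer was 100 nL into about 11 µL; a reference agonist was the positive control; negative values mostly stem from fluorescent compounds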
ALR inh = inhibitors of human ALR sulfhydryl oxidase, primary screen, biochemical, H2O2 detection, HRP-luminol luminescence, single point. FAD-linked sulfhydryl oxidase ALR (Homo sapiens), P55789. purified ALR, DTT oxidation. inhibition, % (no concentration beside the values). 290,000 compounds, 3.8% hits. AID 485317, 2010;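 active = mean and each replicate at 75% or more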;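 note: stock transfer was 7.5 nL into about 7.5 µL; 0% = neutral wells and 100% = wells with inactivated enzyme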
Target sequence (P55789 whole entry, looked up): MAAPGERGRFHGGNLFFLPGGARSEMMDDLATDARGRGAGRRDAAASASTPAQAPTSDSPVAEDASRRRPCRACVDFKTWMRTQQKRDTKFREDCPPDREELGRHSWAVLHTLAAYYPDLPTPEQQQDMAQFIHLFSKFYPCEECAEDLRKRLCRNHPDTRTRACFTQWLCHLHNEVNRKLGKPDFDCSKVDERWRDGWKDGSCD
Ecoli rRNA inh OD600 = also measured in Ecoli rRNA inh; calls as there; OD600 change, %; measured here: OD600 growth;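 optical density of the mix in the first replicate; 0 = DMSO median and -100 = no signal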
Ecoli rRNA inh RFP = further read-out of Ecoli rRNA inh, marked with its call; RFP signal change, %; measured here: RFP humanized mutant strains;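 first replicate; 0 = DMSO median and -100 = no signal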
* hit, by the source's call; i = inactive; . = no result given. Not all compounds are listed; rates above refer to the full screens.

Start of the listing, in advance (4 entries):
entry	Molecule	FGF22 binding	UCH37 DUB inh	HNF4A DNA FP	Ecoli rRNA inh	Ecoli rRNA inh OD600
1	COC1CCN(C(=O)c2cc(COc3ccc(-n4cncn4)cc3)on2)CC1	i	1.8	1.8	6	9
2	Cn1nnnc1SCC(=O)Nc1sccc1C(N)=O	i	0.2	-0.7	-1	7
3	COC(=O)COc1cccc(-n2cnnn2)c1	.	-0.9	0.5	.	.
4	CN1CCN(c2cccc3c2S(=O)(=O)N[C@H](Cc2ccccc2)CO3)CC1	i	.	-5.2	-4	-2

entry	Ecoli rRNA inh RFP	E coli growth	B2AR ag	ALR inh
1	0.2	0.69	1	-38
2	-0.9	0.6	0	24
3	.	0.72	0	-2
4	2.3	.	.	.

The list itself, previewed entries included:
entry	Molecule	FGF22 binding	UCH37 DUB inh	HNF4A DNA FP	Ecoli rRNA inh	Ecoli rRNA inh OD600
1	COC1CCN(C(=O)c2cc(COc3ccc(-n4cncn4)cc3)on2)CC1	i	1.8	1.8	6	9
2	Cn1nnnc1SCC(=O)Nc1sccc1C(N)=O	i	0.2	-0.7	-1	7
3	COC(=O)COc1cccc(-n2cnnn2)c1	.	-0.9	0.5	.	.
4	CN1CCN(c2cccc3c2S(=O)(=O)N[C@H](Cc2ccccc2)CO3)CC1	i	.	-5.2	-4	-2
5	CC(C)N1CCN(Cc2cccc3nonc23)CC1CCO (configuration not stated)	i	1.5	-3.6	6	5
6	CC1CCN(CC(=O)N2c3ccccc3CC2C)CC1 (configuration not stated)	i	-7.4	3.1	12	-5
7	C=CCn1c(=NC(=O)C2CCCCC2)sc2cc(NC(C)=O)ccc21	i	-26	1.3	2	2
8	CC1=C(C(=O)OC(C)C)C(c2ccco2)NC(=O)N1 (configuration not stated)	.	1.5	-4.4	.	.
9	CCOc1c(C#N)c(C#N)c2nc(C)cc(C)n12	.	0.3	9.9	.	.
10	CC(NC(=O)CCc1c[nH]c2ccccc12)c1ccccc1 (configuration not stated)	i	4.7	1.6	-1	-4
11	CCOc1ccc(Nc2nc(Cc3nnc(SCC(=O)N(CC)CC)n3C)cs2)cc1	.	1.8	-1.3	.	.
12	O=C(OCC(=O)N1CCN(C(=O)c2ccco2)CC1)c1sc2cc(F)ccc2c1Cl	.	0.5	4.7	.	.
13	CCOC(=O)c1ccccc1NC(=O)c1ccc2nc[nH]c2c1	i	0.8	-0.2	-3	-3
14	CC(=O)Oc1c(C(=O)c2nnc(C)o2)c(=O)n(C)c2ccccc12	.	-100	-2.1	.	.
15	O=C(Nc1nccs1)C1CCN(S(=O)(=O)c2cccnc2)CC1	i	7.3	1.6	5	12

entry	Ecoli rRNA inh RFP	E coli growth	B2AR ag	ALR inh
1	0.2	0.69	1	-38
2	-0.9	0.6	0	24
3	.	0.72	0	-2
4	2.3	.	.	.
5	-0.9	0.7	1	.
6	-5.9	0.69	2	-7
7	-2.8	0.74	-4	.
8	.	0.74	2	35
9	.	0.74	4	-3
10	-2.4	0.69	2	7
11	.	0.67	-8	.
12	.	0.73	-6	-1
13	-1.8	0.66	16	.
14	.	0.71	0	-12
15	1.5	0.73	-10	-11

Later entries.
entry	Molecule	FGF22 binding	UCH37 DUB inh	HNF4A DNA FP	Ecoli rRNA inh	Ecoli rRNA inh OD600
16	COC(=O)c1ccc(-c2nc3cc(N)ccc3o2)cc1	.	0.5	1.2	.	.
17	O=C(CCc1ccccc1)N1CCN(CCO)CC1	i	6.3	1.3	7	7
18	CCOC1=C2CN(S(=O)(=O)c3ccc(C)cc3)[C@H](c3ccccc3)C[C@@H]2N(S(=O)(=O)c2ccc(C)cc2)[C@H](c2cccc(C)c2)C1	i	.	3.8	9	9
19	CS(=O)(=O)N1CCN(c2ccccc2NC(=S)NC(=O)c2ccco2)CC1	i	5.5	0.6	-28*	-20*
20	COc1ccc(NC(=O)CCCCCN2C(=O)CCC2=O)cc1Cl	.	7.4	3.9	.	.
21	Cc1cc(C)nc(-n2ncc3c2CC(c2cccc(Cl)c2)CC3=O)n1 (configuration not stated)	i	-2.6	2.4	7	4
22	COc1ccc(CCNC(=O)c2cc3ccccc3oc2=O)cc1	i	-0.1	4.3	4	9
23	O=C(O)CCC(=O)OCc1c(-c2ccccc2)ncc2ccccc12	i	6.8	-5.4	1	-10
24	CCOc1c(Br)cc(CNc2ccc(N3CCOCC3)cc2)cc1OC	i	0.1	-2.1	9	5
25	CCN(CC)c1ccc(NS(=O)(=O)c2ccc(-c3ccc(=O)[nH]n3)o2)c(C)c1	i	5.3	2.7	-15	-17
26	CCOc1cc(N2CCOCC2)c(OCC)cc1NC(=O)Cn1cnnn1	i	1.5	-3.6	3	4
27	O=C1c2ccccc2C(O)N1c1ccc(Cl)cc1 (configuration not stated)	i	-0.4	0.5	7	5
28	CCCCC(=O)/C=C/n1c(=S)oc2ccccc21	i	4.2	-0.1	11	10
29	Cc1ccc(S(=O)(=O)N(CCCO)Cc2cc3c(C)ccc(C)c3[nH]c2=O)cc1	i	-15	3.9	-6	-10
30	ClCc1nc2ccccc2n1Cc1ccccc1	i	1.0	-41	7	-8

entry	Ecoli rRNA inh RFP	E coli growth	B2AR ag	ALR inh
16	.	0.63	-3	95*
17	0.4	0.73	8	4
18	-6.8	.	.	.
19	-4.9*	0.67	-2	.
20	.	0.69	6	-31
21	8.3	0.7	4	27
22	0.3	0.7	-6	13
23	-0.8	0.7	3	-2
24	0.0	0.69	-2	98*
25	4.1	0.7	8	100*
26	-0.1	0.67	4	6
27	-3.0	0.78	-2	-11
28	4.3	0.61	39	53
29	-1.5	0.73	-2	-2
30	2.6	0.65	-318	2

Other compounds.
entry	Molecule	FGF22 binding	UCH37 DUB inh	HNF4A DNA FP	Ecoli rRNA inh	Ecoli rRNA inh OD600
31	O=C(CCn1nnc2ccccc2c1=O)NCC1CCC(C(=O)O)CC1 (configuration not stated)	.	3.3	-2.5	.	.
32	Cc1ccc2nc3c(cc(C(=O)NC4CCCCC4)c(=N)n3C3CCCCC3)c(=O)n2c1	i	i	-1.5	3	5
33	Cc1ccc2c(c1)N(C(=O)CCC(=O)NC1CCCCCC1)CCO2	i	-1.4	1.6	1	3
34	COc1cccc(-n2c(C)c3c(OC)cccc(=O)c3c2C)c1	i	2.9	4.2	2	6
35	CCOC(=O)C(=COC(=O)c1ccccc1)NC(=O)Cc1ccccc1	i	1.1	-2.4	21	13
36	Cn1c(C(=O)Nc2ccc3c(c2)OCCO3)cc2sccc21	i	2.5	-0.1	-32*	-24*
37	Cc1ccc(-n2nnnc2SCC(=O)c2cc(C)n(-c3cc(C)on3)c2C)c(C)c1	i	6.5	3.9	-21	-25
38	O=C(NCCN1CCOCC1)c1csc2c1CCCC2	.	4.0	-3.0	.	.
39	CCCCCc1c(C)nc(N2CCN(Cc3ccc4c(c3)OCO4)CC2)[nH]c1=O	i	0.7	0.6	1	7
40	Cc1c(C)c2cc(Cl)c(OCc3nn[nH]n3)cc2oc1=O	.	-170	1.4	.	.
41	Cc1nnc(N2C(=O)C(=O)/C(=C(/O)c3ccc4c(c3)OCCO4)C2c2ccc(F)cc2)s1 (configuration not stated)	i	12	1.2	-18	-8
42	Cc1ccc(-n2ncc(N(C)C)c(Cl)c2=O)cc1	.	3.5	-0.8	.	.
43	COC(=O)c1ccc(NC(=O)CN(C)S(=O)(=O)c2ccc(OC)c(C)c2)cc1	.	1.0	-2.7	.	.
44	O=C(/C=C/c1ccco1)NC(=S)Nc1ccc(Cl)cn1	.	5.5	5.4	.	.
45	C=CCOc1ccc(CN(C)Cc2nc3cc(C(F)(F)F)ccc3c(=O)[nH]2)cc1	i	2.5	4.4	-47	-75

entry	Ecoli rRNA inh RFP	E coli growth	B2AR ag	ALR inh
31	.	0.68	-3	-18
32	-1.0	0.65	6	5
33	-0.1	0.7	-9	7
34	8.3	0.7	7	.
35	5.7	0.7	1	.
36	-9.9*	0.74	-5	-17
37	15	0.67	10	-2
38	.	0.66	-4	-5
39	-4.0	0.67	-1	-4
40	.	0.79	-4	1
41	19	0.69	12	4
42	.	0.74	2	-10
43	.	0.67	0	-9
44	.	0.77	-8	.
45	-28	0.6	-5	2

Compound profiles (already shown). Order of values: FGF22 binding	UCH37 DUB inh	HNF4A DNA FP	Ecoli rRNA inh	Ecoli rRNA inh OD600	Ecoli rRNA inh RFP	E coli growth	B2AR ag	ALR inh
Cc1c(C)c2cc(Cl)c(OCc3nn[nH]n3)cc2oc1=O in the list: .	-170	1.4	.	.	.	0.79	-4	1
O=C(CCn1nnc2ccccc2c1=O)NCC1CCC(C(=O)O)CC1 (configuration not stated) in the list: .	3.3	-2.5	.	.	.	0.68	-3	-18
CCCCCc1c(C)nc(N2CCN(Cc3ccc4c(c3)OCO4)CC2)[nH]c1=O in the list: i	0.7	0.6	1	7	-4.0	0.67	-1	-4
O=C(/C=C/c1ccco1)NC(=S)Nc1ccc(Cl)cn1 in the list: .	5.5	5.4	.	.	.	0.77	-8	.

Continued.
entry	Molecule	FGF22 binding	UCH37 DUB inh	HNF4A DNA FP	Ecoli rRNA inh	Ecoli rRNA inh OD600
46	CCOC(=O)C(C)Sc1ccc2nnc(-c3ccc(F)cc3)n2n1 (configuration not stated)	.	-39	-2.5	.	.
47	Cc1nc(NCc2ccccc2)sc1C(=O)Nc1ccccc1	i	0.8	-2.1	1	5
48	O=C(COC(=O)C1CCC1)Nc1ccc(Cl)cn1	i	-1.0	2.1	3	11
49	O=C(c1ccc(Cl)cc1)c1ccc(OCC(O)CN2CCCCC2)cc1 (configuration not stated)	.	2.0	3.4	.	.
50	Cc1cc(C)c(NS(=O)(=O)c2ccc3c(c2)NC(=O)C(C)C(=O)N3)c(C)c1 (configuration not stated)	i	3.4	2.0	0	-9
51	COc1ccc(-n2c(SCC#N)nc3ccccc3c2=O)cc1	.	0.7	1.2	.	.
52	OC1Cc2ccccc2C1Nc1cccc(C(F)(F)F)c1 (configuration not stated)	i	1.3	0.2	-62	-81
53	Cc1cc(C)cc(OCC(=O)OCC(=O)N(C)CC(=O)Nc2ccc(F)cc2)c1	i	-1.9	-3.8	0	0
54	CC(=O)Nc1ccc(S(=O)(=O)N(C)CC(=O)NCCOc2ccccc2)cc1	i	-1.4	3.1	2	1
55	Cc1ccccc1CC(=O)Nc1ccc2c(c1)c(=O)n(C)n2-c1cccs1	i	.	-0.3	1	-26
56	C=CCn1c(C(C)n2c(-c3cnccn3)nc3ccccc32)nc2ccccc21 (configuration not stated)	i	.	2.8	-17	-5

entry	Ecoli rRNA inh RFP	E coli growth	B2AR ag	ALR inh
46	.	0.73	-6	3
47	-2.8	0.67	1	-5
48	-2.3	0.68	0	0
49	.	0.68	-5	-2
50	-4.7	0.77	-2	-5
51	.	0.74	-12	0
52	-17	0.68	-1	.
53	-2.2	0.73	-3	35
54	-1.8	0.69	3	-6
55	9.1	.	.	.
56	2.6	.	.	.
